Bioassay records as filed in PubChem.
AF4-AF9 inh: inhibitors of human MLL-AF4/AF9 interaction. P42568. AlphaScreen, biotin-AF4 peptide binding to FLAG-AF9. inhibition, % at 10 µM. hit rate 0.47% among 350,000. AID 651704;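 active means every replicate reaching a set inhibition limit, whatever the replicate mean, cut at about 25% in these data; inconclusive means mean inhibition reaches that limit but some replicates miss it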;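 further: 0% = plate neutral control median and 100% = total signal loss; the record names both 10 and 1 µM as test concentration; the first replicate is given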
Target sequence (P42568 whole entry, looked up): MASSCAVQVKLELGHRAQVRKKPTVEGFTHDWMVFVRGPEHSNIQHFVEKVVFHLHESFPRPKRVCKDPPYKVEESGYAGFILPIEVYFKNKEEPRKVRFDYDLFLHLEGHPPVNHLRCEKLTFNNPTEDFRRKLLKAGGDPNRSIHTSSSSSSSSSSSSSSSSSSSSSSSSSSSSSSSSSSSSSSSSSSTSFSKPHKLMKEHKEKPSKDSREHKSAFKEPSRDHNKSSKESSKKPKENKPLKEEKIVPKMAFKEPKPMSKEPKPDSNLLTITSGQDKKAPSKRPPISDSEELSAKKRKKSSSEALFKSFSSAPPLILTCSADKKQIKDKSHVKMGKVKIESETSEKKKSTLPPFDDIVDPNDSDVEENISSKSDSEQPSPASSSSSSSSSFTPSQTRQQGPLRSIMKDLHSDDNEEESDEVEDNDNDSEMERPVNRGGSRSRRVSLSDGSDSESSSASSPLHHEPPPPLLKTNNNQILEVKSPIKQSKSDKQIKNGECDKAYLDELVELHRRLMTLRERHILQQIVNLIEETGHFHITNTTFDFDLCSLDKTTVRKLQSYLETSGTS
Ecoli rRNA inh: selective bacterial rRNA inhibition in E. coli | E. coli WT GFP vs humanized-ribosome RFP mutants, fluorescence, 24 h; stronger effect = lower value; DMSO median 0, no signal -100 | GFP signal change (wild-type ribosome), % (test concentration not listed) | hit rate 1.6% among 350,000 | AID 720706;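 active means significant combined selectivity score with lowered wild-type GFP, culture density cut under 30%, mutant RFP and density less affected; inactive means any of these conditions unmet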; further: one replicate is shown; some compounds called inactive have numbers as strong as hits
Ecoli rRNA inh OD600: second read-out of Ecoli rRNA inh, no call of its own (marks repeat the call); OD600 change, %; measured here: OD600 growth;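 optical density of the mix in the first replicate; 0 = DMSO median and -100 = no signal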
Ecoli rRNA inh RFP: also measured in Ecoli rRNA inh; calls as there; RFP signal change, %; measured here: RFP humanized mutant strains;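 first replicate; 0 = DMSO median and -100 = no signal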
Numbers without * were called inactive; ? = inconclusive. Some of the compounds tested. The share of hits here may be higher or lower than overall.

Screens in order: AF4-AF9 inh, Ecoli rRNA inh, Ecoli rRNA inh OD600, Ecoli rRNA inh RFP
O=C(C[C@@H]1CC[C@@H]2[C@H](COC[C@@H](O)CN2C(=O)c2cnccn2)O1)NCc1ccccc1
  -0.6, 2.9, 1.4, -2.3
O=C(CNc1ccc(Cl)c(C(F)(F)F)c1)N1CCN(S(=O)(=O)c2ccccc2)CC1
  3.4, -10.9, -38.4, -5.7
C[C@H](CO)N1C[C@H](C)[C@@H](CN(C)Cc2ccc(C(F)(F)F)cc2)Oc2c(NS(=O)(=O)c3ccccc3)cccc2C1=O
  3.7, 3.9, 1.3, -0.8
COc1ccc(NC(=O)N(C)C[C@H]2Oc3c(NC(=O)Nc4ccc(F)cc4)cccc3C(=O)N([C@@H](C)CO)C[C@H]2C)cc1
  2.2, 0.5, -0.9, 0.0
O=C(NC1CCCC1)N1CCCCN2[C@H](CO)[C@@H](c3ccc(-c4ccncc4)cc3)[C@H]2C1
  -3.8, 3.8, 17.1, -0.8
Cc1ccc(S(=O)(=O)Nc2cccc3c2O[C@H](CN(C)Cc2ccccc2)[C@@H](C)CN([C@@H](C)CO)C3=O)cc1
  -1.2, -0.3, 3.5, -1.2
CCC(=O)N1C[C@H](C)[C@H](OC)CN(C)C(=O)c2cc(NC(=O)NC3CCCC3)ccc2OC[C@H]1C
  -3.1, 2.6, 1.0, -0.5
O=C(N[C@H]1CC[C@H](CCn2cc(-c3ccccn3)nn2)O[C@H]1CO)c1ccccc1
  -0.8, 0.3, -0.7, -0.5
COc1ccc([C@H]2CC(=O)C[C@@H](CCn3ccnn3)O2)cc1
  -1.3, 0.6, 3.2, -0.8
Cc1noc(C)c1NC(=O)NCC[C@@H]1CC[C@@H](NC(=O)Cc2cccnc2)[C@H](CO)O1
  0.4, 0.6, 10.8, 0.0
CO[C@@H]1CC[C@H]2CCN(C)C(=O)C[C@H](c3ccccc3)CN(C)C(=O)c3cc(C#N)ccc3OC[C@H]1O2
  -0.1, 1.4, 6.7, 0.4
Cc1noc(C)c1NC(=O)N(C)C[C@H]1Oc2ccc(NC(=O)CCCCCC(=O)Nc3ccccc3N)cc2CC(=O)N([C@H](C)CO)C[C@H]1C
  -0.9, 2.0, 6.7, 0.1
CC=Cc1ccc2n(c1=O)C[C@@H]1[C@@H](CO)[C@H](C(=O)N3CCN(C)CC3)N(Cc3ccccc3OC)[C@H]21 (mixture of isomers)
  -1.5, -0.5, -1.4, 0.7
CO[C@H]1CN(C)C(=O)c2cc(NC(=O)Nc3c(C)noc3C)ccc2OC[C@@H](C)NC[C@H]1C
  -1.6, -1.0, 2.6, 0.0
COCC(=O)N1[C@H](CO)[C@@H](c2ccccc2)C12CN(C(=O)Cc1ccccn1)C2
  -4.5, 12.5, 11.2, -1.2
O=C(NCc1ccccc1)[C@@H]1CCCN1C(=O)[C@H]1CCCN1C(=O)c1cccs1
  -4.7, 13.2, 22.6, 8.7
COc1ccc2c3c([nH]c2c1)[C@H](CO)N(C(C)=O)CC31CN(Cc2cc(-c3ccccc3)on2)C1
  25.8*, -0.7, -21.8, 14.5
CC(C)C#Cc1cnc2c(c1)C(=O)N([C@H](C)CO)C[C@H](C)[C@@H](CN(C)C(=O)Nc1ccccc1)O2
  -1.2, 2.6, 11.5, 1.4
Cc1noc(C)c1NC(=O)Nc1cccc2c1O[C@@H](CN(C)Cc1ccccc1)[C@H](C)CN([C@H](C)CO)C2=O
  0.3, -1.4, 1.8, -2.4
CC(C)C#Cc1cnc2c(c1)C(=O)N([C@@H](C)CO)C[C@@H](C)[C@@H](CN(C)C(=O)c1ccccc1F)O2
  -3.8, 2.8, 4.4, -0.8
COC(=O)[C@]12C[C@H](CC(=O)N3CCCCC3)C(=O)N(CCC3=CCCCC3)C1=C[C@H](C(C)(C)C)O[C@@H]2C
  0.9, 11.8, 11.1, -0.5
C[C@H](CO)N1C[C@H](C)[C@H](CN(C)Cc2ccncc2)Oc2cc(-c3cncnc3)ccc2S1(=O)=O
  0.9, -0.1, 4.6, -1.6
C[C@H](CO)N1C[C@H](C)[C@@H](CN(C)CC2CCCCC2)OCCCC[C@H](C)Oc2ccc(NS(=O)(=O)c3cn(C)cn3)cc2C1=O
  -0.7, 2.4, -1.1, 0.2
Cc1noc(C)c1NC(=O)N(C)C[C@@H]1OCCCC[C@@H](C)Oc2ccc(NS(=O)(=O)c3cccs3)cc2C(=O)N([C@@H](C)CO)C[C@H]1C
  0.5, -2.2, -0.6, 0.6
CC(C)C#Cc1cnc2c(c1)C(=O)N([C@H](C)CO)C[C@H](C)[C@@H](CN(C)C(=O)c1ccccn1)O2
  -1.8, 3.4, 0.7, -0.4
Fc1ccccc1CN1[C@@H]2CNC[C@H]1C2c1ccc(-c2ccncc2)cc1 (some centres not stated)
  1.5, 1.6, 17.9, 0.3
CC(=O)N(C)C[C@H]1Oc2cc(C#C[C@H](C)O)ccc2S(=O)(=O)N([C@@H](C)CO)C[C@H]1C
  -2.9, 0.1, 6.0, -2.9
Cc1ccccc1-c1cnc2c(c1)C(=O)N([C@@H](C)CO)C[C@@H](C)[C@@H](CN(C)CC1CCOCC1)O2
  -9.2, 0.3, 15.3, 1.3
O=C(CC1CC1)Nc1ccc2c(c1)[C@H]1C[C@@H](CC(=O)NC3CCCC3)O[C@H](CO)[C@H]1O2
  2.2, 1.8, 0.3, -1.1
COc1ccc(S(=O)(=O)Nc2ccc3c(c2)CC(=O)N([C@H](C)CO)C[C@@H](C)[C@H](CN(C)Cc2ccc4c(c2)OCO4)O3)cc1
  2.3, -5.6, -6.1, 5.9
OC[C@@H]1[C@H](c2ccccc2)C2(CN(CCC(F)(F)F)C2)N1Cc1nccs1
  -2.2, 4.2, 14.4, 0.6
C[C@@H]1CN([C@@H](C)CO)C(=O)c2c(c3ccccc3n2C)-c2ccccc2CO[C@@H]1CN(C)C(=O)Nc1ccnc(N2CCOCC2)c1
  1.7, -6.0, -8.0, -1.6
COc1ccccc1-c1cc2nc(NCCc3ccncc3)ccn2n1
  -1.8, -16.7*, -10.6*, 8.3*
C[C@H]1CCCCO[C@H](CN(C)S(=O)(=O)c2ccc(F)cc2)[C@@H](C)CN([C@@H](C)CO)C(=O)c2cc(NC(=O)Nc3cccc4ccccc34)ccc2O1
  -0.4, 4.4, 0.7, 1.0
COc1ccc2c3c([nH]c2c1)[C@@H](CO)N(C(=O)CN(C)C)CC31CN(C(=O)c2ccncc2)C1
  -1.9, 3.3, 11.1, -2.5
O=C(C[C@H]1C[C@H]2c3cc(NC(=O)NC4CCCC4)ccc3O[C@H]2[C@H](CO)O1)NCc1ccc2c(c1)OCO2
  -1.7, 3.2, 9.0, -1.2
C[C@@H]1CCCCO[C@H](CN(C)C(=O)Nc2ccc(F)cc2)[C@H](C)CN([C@H](C)CO)C(=O)c2cc(N(C)C)ccc2O1
  8.2, -4.1, -9.1, -1.3
C/C=C/c1ccc([C@@H]2[C@@H](CO)N3CCCCN(S(=O)(=O)c4cccc(C)c4)C[C@H]23)cc1
  9.5, -56.8, -76.0, -13.1
Cc1ccc(S(=O)(=O)NC(=O)C2(C)CCN2C(=O)Cc2ccc(Cl)cc2Cl)cc1 (configuration not stated)
  -4.3, -1.4, -2.1, -0.2
O=C(C[C@H]1C=C[C@H](NC(=O)Nc2cc(F)ccc2F)[C@H](CO)O1)NCc1ccc2c(c1)OCO2
  0.7, 2.2, -3.1, 0.2

Two neighbouring entries out of the list so far, for reference:
Screens in order: AF4-AF9 inh, Ecoli rRNA inh, Ecoli rRNA inh OD600, Ecoli rRNA inh RFP
O=C(C[C@H]1C[C@H]2c3cc(NC(=O)NC4CCCC4)ccc3O[C@H]2[C@H](CO)O1)NCc1ccc2c(c1)OCO2
  -1.7, 3.2, 9.0, -1.2
C[C@@H]1CCCCO[C@H](CN(C)C(=O)Nc2ccc(F)cc2)[C@H](C)CN([C@H](C)CO)C(=O)c2cc(N(C)C)ccc2O1
  8.2, -4.1, -9.1, -1.3

Remaining list, next part
Screens in order: AF4-AF9 inh, Ecoli rRNA inh, Ecoli rRNA inh OD600, Ecoli rRNA inh RFP
CO[C@@H]1CN(C)C(=O)c2ccc(NC(=O)Nc3ccccc3F)cc2OC[C@@H](C)N(C(C)=O)C[C@H]1C
  -0.5, -0.5, -5.4, -1.2
C[C@@H](NC(=O)C[C@H]1C[C@@H]2c3cc(NC(=O)C4CCOCC4)ccc3O[C@@H]2[C@H](CO)O1)c1ccccc1
  ?, -3.8, 2.8, -1.4
C[C@@H]1CN([C@@H](C)CO)S(=O)(=O)c2ccc(-c3ccccc3)cc2O[C@@H]1CN(C)S(C)(=O)=O
  2.5, -5.1, -15.9, -2.6
CN1C(=O)c2cc(NC(=O)c3cccs3)ccc2OC[C@@H]2O[C@@H](CC(=O)N3CCOCC3)CC[C@@H]21
  1.0, -0.3, -6.9, -1.6
CC(C)NC(=O)N(C)C[C@@H]1OCCCC[C@H](C)Oc2ccc(NC(=O)c3ccccc3)cc2C(=O)N([C@H](C)CO)C[C@H]1C
  -2.6, -2.2, -5.6, 0.5
CCNC(=O)C[C@@H]1CC[C@@H]2[C@H](COc3ccc(NC(=O)Nc4ccc(F)cc4)cc3C(=O)N2C)O1
  -0.7, 0.5, -0.6, -0.4
C[C@@H]1CCCCO[C@H](CN(C)Cc2ccc3c(c2)OCO3)[C@H](C)CN([C@@H](C)CO)C(=O)c2cc(NS(=O)(=O)c3ccccc3)ccc2O1
  6.3, 1.6, 3.3, 8.9
C[C@H](CO)N1C[C@H](C)[C@H](CN(C)C(=O)Cc2ccccn2)Oc2ncc(-c3cncnc3)cc2C1=O
  -2.6, -2.4, 8.7, 0.7
Cc1noc(C)c1NC(=O)Nc1ccc2c(c1)CC(=O)N([C@@H](C)CO)C[C@H](C)[C@@H](CN(C)CC1CC1)O2
  -15.4, -7.5, 7.8, -2.8
O=C(C[C@@H]1CC[C@@H]2[C@H](COC[C@@H](O)CN2C(=O)c2ccccn2)O1)N1CCN(c2ccccc2)CC1
  -1.1, 3.6, 10.1, -2.9
CCCCNC(=O)C1(C)CCCCCN1Cc1cc2ccccc2o1 (configuration not stated)
  -7.6, -21.4, -59.8, 14.2
O=C(C[C@@H]1CC[C@@H]2[C@H](COC[C@@H](O)CN2Cc2ccncc2)O1)NCc1ccncc1
  -4.7, 0.9, -5.1, 2.9
CO[C@@H]1CN(C)C(=O)c2cc(NS(=O)(=O)c3cccc(F)c3)ccc2OC[C@@H](C)N(Cc2cc(F)ccc2F)C[C@@H]1C
  0.7, -1.6, -9.2, 8.6
C[C@@H]1CN([C@H](C)CO)C(=O)c2cc(C#C[C@@H](C)O)cnc2O[C@@H]1CN(C)Cc1ccccn1
  -0.9, 0.2, 7.5, -3.2
C[C@H](CO)N1C[C@H](C)[C@H](CN(C)C(=O)Nc2cccc3ccccc23)Oc2ccc(NC(=O)NC3CCCCC3)cc2CC1=O
  0.7, -0.8, -2.4, 1.4
CNC[C@@H]1Oc2ccc(NC(=O)Cc3ccccc3)cc2CC(=O)N([C@@H](C)CO)C[C@@H]1C
  -2.4, 1.2, 1.7, -0.4
C[C@H](CO)N1C[C@H](C)[C@@H](CN(C)Cc2ccccc2)Oc2ccc(NC(=O)CCCN(C)C)cc2C1=O
  -0.9, 1.7, 12.3, -0.2
CNC[C@H]1Oc2ncc(C#CCC(C)C)cc2C(=O)N([C@H](C)CO)C[C@H]1C
  -0.6, 3.2, 7.7, 0.6
O=C(OCc1ccccc1)N1CCC2CC1c1ccc(N3CCOCC3)cc12 (configuration not stated)
  5.8, -26.4, -47.6, -4.1
COc1cc(C(C)=O)ccc1OCC(=O)NCc1ccccc1CN1CCCC1
  3.1, 8.3, 14.6, -0.8
CNC[C@@H]1Oc2ccc(NC(=O)C3CC3)cc2C(=O)N([C@@H](C)CO)C[C@@H]1C
  -0.6, 2.1, 13.2, -0.1
CCCC#Cc1ccc([C@@H]2[C@H](CO)N3C(=O)CN(C(=O)Nc4ccccc4F)C[C@@H]23)cc1
  -0.8, 2.7, -2.2, 6.7
O=C(C[C@H]1C=C[C@H](NS(=O)(=O)c2ccc(F)cc2)[C@H](CO)O1)NCc1ccccc1F
  -3.1, 2.0, 3.7, 1.5
CCNC(=O)C1(C)CCCN(CCOc2ccc(OC)cc2)C1 (configuration not stated)
  1.9, 17.3, 15.5, 1.6
O=S(=O)(c1ccccc1)N1CCCCN2[C@H](CO)[C@H](c3ccc(-c4cncnc4)cc3)[C@H]2C1
  -4.2, 1.0, 20.4, -1.9
C[C@H](CO)N1C[C@H](C)[C@H](CN(C)C(=O)c2ccncc2)OCCCC[C@H](C)Oc2ccc(NC(=O)c3ccccc3)cc2C1=O
  -1.2, -2.0, -5.1, -2.1
C[C@@H]1CN([C@@H](C)CO)S(=O)(=O)c2ccc(C#CC3CC3)cc2O[C@H]1CN(C)C(=O)C1CCC1
  1.9, -50.8, -72.7, -16.0
COc1ccccc1CNS(=O)(=O)c1cc(C(=O)N(C)Cc2cccnc2)c(Cl)cc1Cl
  -5.7, -8.3, -6.4, -10.0
COc1ccccc1C#Cc1ccc([C@H]2[C@@H](C#N)N(C(=O)C3CCCCC3)[C@H]2CO)cc1
  4.9, 0.7, 2.0, -0.1
CN(C)C(=O)[C@H]1[C@H](CO)[C@H]2Cn3c(ccc(C4=CCCC4)c3=O)[C@@H]1N2Cc1ccccn1
  -1.7, 2.3, 8.8, -2.6
C[C@@H]1CN([C@H](C)CO)C(=O)c2cc(NS(=O)(=O)c3cn(C)cn3)ccc2O[C@H]1CN(C)Cc1ccc(Oc2ccccc2)cc1
  1.4, -0.6, -4.5, -2.2
